# Screening data: PubChem BioAssay, ICCB-Longwood Screening Facility, Harvard Medical School
# GIV-Gai inh: inhibitors of GIV peptide binding to Galpha-i3, primary screen, biochemical, fluorescence polarization, FITC-GIV GBA peptide, rat Galphai3 | 90 min; stronger effect = lower value; scaled: aluminum fluoride 0%, vehicle 100% | Guanine nucleotide-binding protein G(i) subunit alpha-3 (Rattus norvegicus), P08753 | percent of control (FP), % (concentration not given with the values) | 210,000 tested, 0.42% active;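 active means replicate mean at 85% of control or lower, very high polarization wells dropped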;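 further: wells of about 15 µL received 100 nL stock; the first replicate is given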
# Target sequence (P08753 whole entry, looked up): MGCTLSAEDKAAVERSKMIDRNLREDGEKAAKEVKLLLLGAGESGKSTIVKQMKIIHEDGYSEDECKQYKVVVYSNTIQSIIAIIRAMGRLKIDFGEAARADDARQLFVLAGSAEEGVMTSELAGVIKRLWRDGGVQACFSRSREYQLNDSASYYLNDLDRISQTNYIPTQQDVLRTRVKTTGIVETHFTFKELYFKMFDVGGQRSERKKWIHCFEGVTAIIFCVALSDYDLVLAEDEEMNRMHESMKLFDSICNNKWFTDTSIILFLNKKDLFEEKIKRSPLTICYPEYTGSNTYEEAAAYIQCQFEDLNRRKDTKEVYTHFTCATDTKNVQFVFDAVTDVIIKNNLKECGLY
# HCMV UL50-53 inh: inhibitors of HCMV UL50-UL53 interaction, biochemical, HTRF; normalized percent inhibition; inhibition, % (concentration not given with the values); HCMV UL50-UL53 nuclear egress complex (human cytomegalovirus); 190,000 tested, 0.15% active;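 active means both replicates at 50% or more, plus weaker picks with an unusually low signal ratio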;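 further: stock transfer was 100 nL into about 20 µL; 0% = negative control wells and 100% = wells with untagged competitor protein; inactives centre near -12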
# Sa growth 42C: S. aureus growth inhibition at 42 and 30 °C, primary screen, LtaS inhibitor project, RN4220, two temperatures; OD600, 20 h, 42 °C; stronger effect = lower value; relative growth, % (concentration not given with the values); 170,000 tested, 0.53% active; AID 720641, 2013;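 active means growth at 42 °C up to 50% and 20 or more points under that at 30 °C, or under 10% at both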;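 further: 300 nL library stock went into each well; scaled to the means of positive and negative controls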
# Sa growth 42C second temp: also measured in Sa growth 42C; calls as there; relative growth, %; measured here: growth at 30 °C;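 optical density after 20 h as mean of two plates; 100% = untreated growth and lower means inhibition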
# An asterisk follows results filed as active; · = not tested or not shown; & = joins results of further samples.
SMILES,GIV-Gai inh,HCMV UL50-53 inh,Sa growth 42C,Sa growth 42C second temp
CC(Sc1nc(N)cc(=O)[nH]1)C(=O)Nc1ccc(S(N)(=O)=O)cc1 (stereo not given),102,-3,102,96
COc1ccc(NC(=O)CN2C(=O)CSCC2=O)cc1,98,-35,84,84
O=C(Nc1csc(Cc2c(Cl)cccc2Cl)n1)NN1CCOCC1,107,-38,128,88
CCn1c(=O)sc2cc(NS(=O)(=O)c3ccc(C)cc3)ccc21,108,-13,109,86
O=C(NCc1cccc(Cl)c1)c1ccc(-c2csnn2)cc1,100,-9,103,86
O=C(O)c1ccccc1C1SCC(=O)N1NC(=S)Nc1ccccc1 (stereo not given),·,2,93,91
Cc1nc(SCC(=O)Nc2sc3c(c2C(N)=O)CCC3)c2c3c(sc2n1)CCC3,107,-17,·,·
O=C(C1CCC(=O)N1S(=O)(=O)c1ccccc1)N1CCN(CCOc2ccc(Cl)cc2)CC1 (stereo not given),108,0,·,·
COc1ccc(-c2cc3c(S(=O)(=O)c4ccccc4)cc(NC(C)=O)cc3n2C)cc1,108,4,79,90
COC(=O)c1ccc(OC)c(CN2CCCN(Cc3ccc(C)cc3)S2(=O)=O)c1,101,·,89,93

# Later entries
SMILES,GIV-Gai inh,HCMV UL50-53 inh,Sa growth 42C,Sa growth 42C second temp
O=C(COC(=O)c1cc(-c2ccccc2)nc2ccccc12)NC1CC1,·,-56,105,88
COc1ccc(-c2noc(CCCC(=O)Nc3nccs3)n2)cc1,91,-18,·,·
CCN(C(=O)c1cc2c(s1)-c1ccccc1SC2)c1ccccc1,104,·,118,84
Cc1cccc(CCNC(=O)c2cc3c(=O)n(C)c4ccccc4c3n2C)c1,100,-35,109,84
Cn1c(CN2CCCC2)nc2cc(NS(=O)(=O)c3ccc(F)cc3)ccc21,102,-3,108,97
CCCn1c(CCCNC(=O)c2ccccc2OC)nc2ccccc21,107,18,93,91
Cn1nnc2c(N3CCN(c4cccc(C(F)(F)F)c4)CC3)ncnc21,92,·,91,95
CCOc1ccccc1OCCN[C@H](C)Cc1ccc(OC)c(S(N)(=O)=O)c1,106,-34,98,100
CCOc1ccccc1N1CCN(C(=O)c2ccc3c(c2)S(=O)(=O)N=C2CCCCCN23)CC1,·,-29,78,90
Cc1nn2c(C)c(C(=O)N3CCCC3)cnc2c1-c1ccccc1,111,-27,·,·

# Remaining list, next part.
SMILES,GIV-Gai inh,HCMV UL50-53 inh,Sa growth 42C,Sa growth 42C second temp
Cn1cnc(S(=O)(=O)N2CCC(C(=O)Nc3cccc(Cl)c3)CC2)c1,107,-16,·,·
COc1ccc(NCc2nnc3n2CCCCC3)c(OC)c1,93,·,78,88
O=C(Cc1c(O)c2ccccc2oc1=O)c1cc2ccccc2o1,105,3,90,99
COc1cc(-c2nc3ccccc3c(=O)n2NC(=O)c2cc(Br)ccc2Cl)cc(OC)c1OC,107,-20,·,·
O=C1c2ccccc2C(=O)N1CCC12CC3CC(CC(C3)C1)C2,101,·,91,98
CN1C(=O)C[n+]2ccccc2C1C(=O)Nc1ccccc1 (stereo not given),104,·,93,96
O=C1CCSC(c2cccnc2)N1CCc1ccc(Cl)cc1 (stereo not given),102,-8,108,108
Cc1cccc(N(C)C(=O)/C=C/C(=O)O)c1,102,·,94,84
CCS(=O)(=O)n1nc(-c2ccco2)nc1NCc1ccc(C(C)C)cc1,103,-19,99,83
O=C1CC(Nc2ccc(Cl)cc2)C(=O)N1c1ccc(Cl)cc1 (stereo not given),101,2,104,105

# The list goes on:
SMILES,GIV-Gai inh,HCMV UL50-53 inh,Sa growth 42C,Sa growth 42C second temp
O=C1CC(c2ccccc2)=Nc2ccccc2N1Cc1ccc(F)cc1,100,-26,·,·
COC(=O)C1C(c2ccccc2)C(C(=O)N2CCOCC2)C1c1ccccc1 (stereo not given),109,-8,75,106
Ic1ccccc1/C=N/n1cnnc1,·,-29,106,91
CCOC(=O)c1c(NC(=O)CSc2cn(CCNC(=O)c3c(F)cccc3F)c3ccccc23)sc2c1CCCC2,103,-13,84,92
c1ccc(-c2noc(C3CCC3)n2)nc1,105,-1,127,100
Cc1ccc(NC(=O)C(NC(=O)c2ccccc2)C(C)C)cc1 (stereo not given),·,-17,108,91
O=C1CC(c2nc3ccccc3n2Cc2c(F)cccc2Cl)CN1c1cccc(C(F)(F)F)c1 (stereo not given),109,-15,100,92
CCN(CC)c1ccc(C(=O)N=c2sc3ccccc3n2C)cc1,101,-14,101,91
CCC1=NN(C(=O)c2cccc(Cl)c2)C(O)(c2ccc(Br)cc2)C1 (stereo not given),119,-12,·,·
CN(C)c1ccc(C=Nc2ccc3c(c2)ncn3C(C)(C)C)cc1,·,-37,86,87

# Some entries already given, showing only GIV-Gai inh, Sa growth 42C second temp and HCMV UL50-53 inh:
Structure	GIV-Gai inh	Sa growth 42C second temp	HCMV UL50-53 inh
O=C1CC(c2nc3ccccc3n2Cc2c(F)cccc2Cl)CN1c1cccc(C(F)(F)F)c1 (stereo not given)	109	92	-15
CCN(CC)c1ccc(C(=O)N=c2sc3ccccc3n2C)cc1	101	91	-14

# Returning to the listing, repeating the two entries before the break.
SMILES,GIV-Gai inh,HCMV UL50-53 inh,Sa growth 42C,Sa growth 42C second temp
CCC1=NN(C(=O)c2cccc(Cl)c2)C(O)(c2ccc(Br)cc2)C1 (stereo not given),119,-12,·,·
CN(C)c1ccc(C=Nc2ccc3c(c2)ncn3C(C)(C)C)cc1,·,-37,86,87
CC1CN(S(=O)(=O)c2cc(C(=O)N3CCNC(=O)C3)ccc2Cl)CC(C)O1 (stereo not given),·,-6,93,91
O=C(c1ccc(COc2ccccc2)o1)N1CCCC(c2nc3ccccc3s2)C1 (stereo not given),·,-14,81,93
Cc1ccc(-c2nc(SCc3ccc(Br)cc3)n3[nH]c(=O)cc3n2)cc1,98,·,80,93
COc1ccc(C2NC(=O)c3[nH]nc(-c4cccc(OC)c4)c32)cc1 (stereo not given),104,·,107,84
FC(F)(F)c1ccc(Sc2nnc(-c3cccs3)n2CC2CCCO2)nc1 (stereo not given),·,0,110,93
O=C(NCCc1ccc(Cl)cc1)c1ccc(CSCc2ccccc2Cl)o1,99,·,86,45
CC(=O)NCCNC(=O)CCCn1c(=O)[nH]c2ccsc2c1=O,104,-27,91,86
Brc1ccc(-c2nc(N3CCN(c4ccccc4)CC3)c3ccccc3n2)cc1,108,·,95,100
CC(=O)N1NC(c2ccccc2)CC1c1ccccc1 (stereo not given),·,-23,112,87
CN1C(=O)c2cc(C(=O)NCCN3CCOCC3)nn2CC1(C)C(=O)NC1CCCC1 (stereo not given),101,-12,·,·

# (further entries)
SMILES,GIV-Gai inh,HCMV UL50-53 inh,Sa growth 42C,Sa growth 42C second temp
Cc1ccc2c(C)c(C(=O)N(Cc3ccc(N(C)C)cc3)Cc3ccco3)oc2c1C,106,-9,106,88
CSCC(=O)NCc1ccc(CN2CCCC2)cc1,·,-4,99,91
COc1ccc(CCNC(=O)C(CC(C)C)N2Cc3ccccc3C2=O)c(OC)c1OC (stereo not given),106,·,110,94
Nc1ccccc1C(=O)N1CCNC(=O)C1,104,11,98,100
CCN(CC)c1ccc2cc(NC(=O)CCC(=O)O)c(=O)oc2c1,84*,-38,94,87
CC1CNCCN1S(=O)(=O)c1cccc2cnccc12 (stereo not given),103,-17&-20,·,·
CCS(=O)(=O)N1CCC(c2c(C)n(Cc3ccc(Cl)cc3)c3ccccc23)CC1,105,-30,·,·
O=C(Cc1ccc2c(c1)OCCO2)Nc1ccc(-c2nnc3n2CCCCC3)cc1,·,4,104,98
CC1=C(C(=O)Nc2ccc(C)cc2C)C(c2ccc(Br)cc2)n2ncc(C(=O)Nc3cccc(C)c3)c2N1 (stereo not given),108,·,104,103
CCc1nc(C)ccc1OCC(N)=O,101,-11,92,92

# Fetched one by one from above (3):
SMILES,GIV-Gai inh,HCMV UL50-53 inh,Sa growth 42C,Sa growth 42C second temp
CCN(CC)c1ccc2cc(NC(=O)CCC(=O)O)c(=O)oc2c1,84*,-38,94,87
Cn1c(CN2CCCC2)nc2cc(NS(=O)(=O)c3ccc(F)cc3)ccc21,102,-3,108,97
COc1ccc(-c2cc3c(S(=O)(=O)c4ccccc4)cc(NC(C)=O)cc3n2C)cc1,108,4,79,90

# The list goes on.
structure,GIV-Gai inh,HCMV UL50-53 inh,Sa growth 42C,Sa growth 42C second temp
CC(C)N1C(=O)CCC1C(=O)NCCc1ccc(Cl)cc1 (stereo not given),101,·,96,89
CCn1cc(Br)c(C(=O)Nc2ccccc2C(C)(C)C)n1,104,-39,100,87
CC1=CC(=Nc2c(C)n(C)n(-c3ccccc3)c2=O)c2ccccc2C1=O,107,-23,89,86
COc1cc(=O)n(-c2ccc(C)cc2)nc1C(=O)Nc1ccc(Br)cc1,104,-25,·,·
O=C(CN1C(=O)C(c2ccccc2)Oc2cccnc21)NCCCN1CCC(N2CCCCC2)CC1 (stereo not given),102,-136,·,·
Cc1[nH]c(=O)[nH]c(=S)c1C#N,·,-27,66,93
CC(N)c1ccc(Br)cc1 (stereo not given),·,-8,97,90
COc1cccc(-n2c(SCC(=O)Nc3ccc4[nH]c(=O)[nH]c4c3)nc3ccccc3c2=O)c1,·,-27,102,98
CCOC(=O)c1ccc(Oc2nc(NC)nc(SC)n2)cc1,106,-2,·,·
[O-][n+]1c2c(nn1-c1ccccc1)/C(=N\O)CCC2,103,-19,99,112
Cc1cc(S(=O)(=O)NCCc2sc(-c3ccc(F)cc3)nc2C)ccc1F,107,-2,·,·
O=C(CCC1N=C2c3ccccc3N=C(SCc3cccc(F)c3)N2C1=O)NCc1ccc(F)cc1 (stereo not given),95,·,101,93
COc1ccc(-c2noc(COC(=O)C3=NN(c4cc(C)ccc4C)C(=O)CC3)n2)c(OC)c1,·,-17,103,91
O=C(Oc1cccnc1)C1c2ccccc2Oc2ccccc21,97,-16,104,85
O=C(CSc1nnc(Cc2ccccc2)o1)c1ccccc1,98,-28,112,68
Cc1oc2c(cc(NS(=O)(=O)c3ccc(Br)cc3)c3ccccc32)c1C(=O)OC(C)C,102,-9,·,·
Cc1cc(NC(=O)Cn2c(=O)nc(-c3ccccc3F)c3cc(Cl)ccc32)ccc1Br,105,17,91,92
Cc1ccc(-c2noc(CCCC(=O)NCC3CCCO3)n2)cc1 (stereo not given),107,-1,100,97
N#CCSc1nc2nccnc2c(=O)n1Cc1ccccc1Cl,105,·,86,75
CC(Sc1ccccc1)C(=O)NN=C1CCCC1 (stereo not given),99,-10,89,92
CC1CCc2[nH]c(=S)nc(C(F)(F)F)c2C1 (stereo not given),97,-16,71,74
CCNc1ccc(-c2nc3ccccc3[nH]2)cn1,·,-10,123,82
c1nc(N2CCCCCC2)c2ccsc2n1,·,-25,123,84
COc1ccc(NC(=O)C2CCN(S(=O)(=O)c3c(C)noc3/C=C/c3ccc(C)cc3)CC2)cc1Cl,99,·,99,95
COc1ccc2c(Sc3ccccc3)c(C(=O)N3CCCCC3)[nH]c2c1,97,·,81,87

# (continued)
structure,GIV-Gai inh,HCMV UL50-53 inh,Sa growth 42C,Sa growth 42C second temp
CC(Sc1ccc(Cl)cc1)C(=O)NCc1ccncc1 (stereo not given),·,-14,100,83
CCOC(=O)c1sc(N)c(C#N)c1COC(=O)C1CSC2(C)CCC(=O)N12 (stereo not given),·,-19,91,81
CC1CCN(C(=O)CSc2nc3c([nH]c4ccccc43)c(=O)n2-c2ccccc2)CC1,109,·,127,96
CCCS(=O)(=O)N1CC(=O)N(c2ccc(C)cc2)C(C)(C(=O)NC2CCCCCC2)C1 (stereo not given),107,·,109,89
N#Cc1ccccc1CS(=O)(=O)N1CCOCC1,·,-24,69,93
Cc1ccc(CNC(=O)c2cc(-c3cccnc3)nc3ccccc23)cc1,106,-12,·,·
O=C(COc1cccc(-n2cnnn2)c1)N1CCCCCC1,·,-39,110,78
COc1ccc(C(C#N)c2nc3ccccc3nc2C(F)(F)F)cc1 (stereo not given),99,4,·,·
CSc1ncc(Cl)c(C(=O)Nc2c(C(=O)Nc3ccccc3)oc3ccccc23)n1,100,·,110,92
Cc1ccc(-c2cc(C(=O)Nc3cccc4nsnc34)c3ccccc3n2)cc1C,105,6,·,·
CN=C(Nc1cc(C)nn1CCC#N)c1ccccc1,·,-6,93,93
COc1ccc2c(c1)c1c(c(=O)n(-c3ccccc3C)c(=O)n1Cc1cccc(C(F)(F)F)c1)n2C,106,·,123,101
O=C(Nc1cccc(C(F)(F)F)c1)N1CCC(CN2CCOCC2)CC1,99,5,110,112
CCc1ccc(NC(=O)CN2C(=O)CC(c3ccccc3)Sc3ccccc32)cc1 (stereo not given),111,-8,96,96
O=S(=O)(Nc1ccc2ccccc2n1)c1ccccc1,100,4,112,83
CC(=O)NC(c1ccccc1)(c1ccccc1)C(F)(F)F,·,-12,90,90
CCN(CC)CCCNC(=O)Cc1csc2nc(-c3ccc(Cl)cc3)cn12,113,·,107,96
CCOc1cc(-n2cnnn2)c(OCC)cc1NC(=O)c1cc2cccc(OC)c2oc1=O,98,-16,120,100
Cc1nn(-c2ccccc2)c(C)c1CN=Cc1c(O)[nH]c(=O)[nH]c1=O,·,30,90,89
Cc1ccc(NS(=O)(=O)c2ccc(NC(=O)CN3C(=O)c4ccccc4S3(=O)=O)cc2)cc1,103,-11,·,·
